H5N1 antiviral: MDCK cell protection from H5N1 avian flu; cytopathic effect, luminescence, 72 h; hits give high values; no value below 0 was filed and about half of the inactive calls have no number; reference of the scale not given here; inhibition, % at 50 µM; actives 0.07% (n = 96,000); AID 740, 2007; in the data active means inhibition above about 25%
* marks the source's active call; other numbers are inactive results; i = inactive. This is a subset. The share of hits here may be higher or lower than overall.

Molecule | H5N1 antiviral
O=c1[nH]c(=O)n(Cc2ccco2)c(O)c1C=NC1CC1 | 2.6
CC1Cc2ccccc2N1S(=O)(=O)c1cccc(C(=O)NCCCO)c1 (stereo unspecified) | 0.0
COc1ccccc1-n1c(-c2ccc(NS(C)(=O)=O)cc2)n[nH]c1=S | i
O=C(NCc1ccco1)c1cccc(F)c1 | 11.8
N#Cc1ccc(N2CCNCC2)c(F)c1 | 1.0
Cn1c(C(C#N)C(=O)c2sc3ccccc3c2Cl)nc2ccccc21 (stereo unspecified) | i
O=C(OCc1nnc(-c2ccccc2)o1)c1ccco1 | 2.1
CCCCNC1C(CC)C(CCC)C(C#N)(C#N)C1(C#N)C#N (stereo unspecified) | 4.8
CC(OC(=O)Cn1c(C(F)(F)F)nc2ccccc21)C(=O)N1CCCc2ccccc21 (stereo unspecified) | 0.4
CCN(CC)CCCN=C(C)c1c(O)n(-c2ccccc2)c(=O)[nH]c1=O | i
C/C(Cl)=C\CSc1nnc2n(N)c(=O)c3ccccc3n12 | 2.5
Cc1ccnc(NC(=O)c2cccc(NC(=O)COc3ccccc3)c2)c1 | i
COCCCn1c(SCc2ccc(OC)cc2)nc2cc(OC)c(OC)cc2c1=N | 2.4
CCOC(=O)C1CCN(S(=O)(=O)c2cccc3nonc23)CC1 | 1.1
O=C(CCCN1C(=O)c2ccccc2C1=O)NCCCN1CCOCC1 | 0.2
C=CCN(CC=C)S(=O)(=O)c1ccc2nc(NC(=O)C(C)C)sc2c1 | i
O=C(CCOc1ccccc1)OCC(=O)c1cc2ccccc2o1 | i
CCOC(=O)C1=C(CSCC(=O)OC)NC(=O)NC1c1cc(C)ccc1C (stereo unspecified) | i
COc1ccc(C(C)=O)cc1CSCCC(=O)O | i
CCn1c(O)c(/C=N/N=C/c2ccccc2)c2ccc(C3=NNC(=O)CC3)cc21 | i

Molecule | H5N1 antiviral
COc1cccc(-n2nc(C(=O)N3CC(C)CC(C)C3)c3ccccc3c2=O)c1 (stereo unspecified) | 0.8
CCNc1nc(Oc2ccc(=O)n(-c3ccccc3)n2)nc(N(C)C)n1 | i
Cn1c(Oc2ccc(Cl)c3cccnc23)nc2c1c(=O)n(Cc1ccccc1Cl)c(=O)n2C | i
COC(=O)CSc1nnc(CNC(=O)c2ccccc2OC)n1C | i
Cc1ccc(Nc2nc(C)c(CCC(C)C)c(=O)[nH]2)cc1 | i
Cn1c(=O)[nH]c(=O)c2c1nc(NC1CCCCC1)n2CC(=O)NC1CCCCC1 | 0.8
COc1ccc2nc(NC(=O)CN(c3ccc(C)cc3)S(=O)(=O)c3c(C)nn(C)c3C)sc2c1 | i
Cc1ccc(Cc2cnc(N)s2)o1 | i
CCC1(C)Cc2c(sc3c2c(=O)n(C)c2nnc(SCc4ccccc4)n32)CO1 (stereo unspecified) | 2.9
Cn1cnnc1SC(C(=O)Nc1ccc(F)cc1)c1ccccc1 (stereo unspecified) | i
Cc1ccc(CS(=O)(=O)CCC(=O)NCc2cccs2)cc1 | i
Cn1c(=O)cc(SCC(=O)Nc2cccnc2)c2ccccc21 | i
O=C(CSc1nc2c(sc3ccccc32)c(=O)n1CCO)NCC1CCCO1 (stereo unspecified) | 1.2
CN1C(=S)SC(N(O)C(=O)Nc2cccc3ccccc23)C1(C)C (stereo unspecified) | i
N#Cc1ccccc1NC(=O)c1ccc(-c2ccccc2Cl)o1 | 0.5
COc1ccc(/C(N)=N/OC(=O)c2ccc3c(c2)OCO3)cc1OC | i
Cc1ccc(Nc2nnc(SCc3cc(=O)n4ccsc4n3)s2)c(C)c1 | 3.4
Cc1ccc(-c2noc(CCCc3ccccc3)n2)cc1 | i
Brc1ccccc1-c1nnc2sc(-c3ccc4c(c3)OCCO4)nn12 | i
Cc1cccc(N2CCN(C(=O)CN(C)S(=O)(=O)c3ccc4c(c3)CCC(=O)N4)CC2)c1C | 1.1

Molecule | H5N1 antiviral
Clc1ccc2c(c1)CCc1cccnc1C2=C1CCNCC1 | i
CC(C)NC(=O)NC(=O)CSc1nncn1C | i
CCN1C(=O)CC(C(=O)Nc2ccc(F)cc2)SC1=Nc1ccc2c(c1)OCO2 (stereo unspecified) | i
CCOC(=O)C(C(=O)OCC)C(C)C#CCN1CCCCC1 (stereo unspecified) | 0.7
CN(C)/C=C1/C=C(c2ccccc2)OC1=O | 0.3
COc1ccc(C(=O)CSc2nnc(COc3ccccc3)n2Cc2ccco2)cc1 | i
CC(C)Cn1c(-c2csc3ccccc23)n[nH]c1=S | 0.1
COc1ccc(C(NC(=O)c2ccco2)c2ccc(OC)c(OC)c2)cc1OC | i
CCCn1c(SCC(=O)NC2CCCCC2)nnc1-c1ccncc1 | 0.4
COC(=O)c1ccc(C2C3=C(Nc4nnnn42)c2ccccc2OC3)cc1 (stereo unspecified) | 2.1
Cc1ccc(C(=O)Nc2c(-c3cccs3)c(=O)c3ccccc3n2C)cc1 | i
CC(C)(C)c1ccc(OCC(=O)N/N=C/c2cc(Br)ccc2OC(=O)c2ccco2)cc1 | i
Cc1nn(C)c(Oc2ccc(Cl)cc2)c1C(=O)O | 0.1
O=C(CSc1nnnn1Cc1ccccc1)c1ccccc1 | 1.9
O=C1/C(=C/c2cccnc2)Oc2cc(OS(=O)(=O)c3ccc(Cl)cc3)ccc21 | 0.5
O=C(NCC1CCCO1)C1CCN(S(=O)(=O)c2cccnc2)CC1 (stereo unspecified) | 1.3
CCc1ccccc1N1CC23C=CC(O2)C(C(=O)O)C3C1=O (stereo unspecified) | 0.1
CC(C)(C)NC(=O)CSC(=Nc1cccc(F)c1)NC#N | 10.5
COc1ccc(OCC(=O)OCCN2C(=O)c3ccccc3C2=O)cc1 | 0.5
CCC(C)(C)n1nnnc1C(CC(C)C)N1CCC(C(N)=O)CC1 (stereo unspecified) | i

Molecule | H5N1 antiviral
Cc1cc(C(=O)OCC(=O)NC(=O)NC(C)(C)C)c(C)o1 | 0.2
Cc1cc(C(=O)OCC(=O)Nc2ccccc2F)c(C)o1 | i
CCOc1cccc(C2C(C#N)=C(N)Oc3cc(C)n(Cc4ccccn4)c(=O)c32)c1OCC (stereo unspecified) | i
CCOc1ccc2nc(SCC(=O)NCc3ccco3)sc2c1 | i
COCC(=O)OCn1nnc2ccccc2c1=O | 0.1
c1ccc(-c2nc3ccccc3c3nncn23)cc1 | 1.6
CCN1CCN(c2nc3sc4c(c3c3ncnn23)CC(C)CC4)CC1 (stereo unspecified) | i
N=c1n(CCN2CCCCC2)c2ccccc2n1CC(O)c1cccc(Br)c1 (stereo unspecified) | i
Cc1nn(C)c(C)c1S(=O)(=O)N(CC(=O)NCc1ccco1)c1ccc(C(C)C)cc1 | 2.0
CCCCN(CCCC)C(=O)CSc1nnc2n(C)c(=O)c3c4c(sc3n12)CCCC4 | 5.3
O=C1c2ccccc2C(=O)c2c1ccc(C(=O)N1CCCCC1)c2NCCO | i
O=C(O)C1CSC(c2ccncc2)N1 (stereo unspecified) | 0.3
CCOC(=O)c1cnc(SCc2cccc(C)c2)nc1N | i
COc1ccc(-c2cc(C(F)(F)F)nc(N3CCN(C)CC3)n2)cc1OC | i
c1cncc(C2CCCCN2Cc2ccc3c(c2)OCO3)c1 (stereo unspecified) | 1.0
COc1ccc(NC(=O)C2C(=O)N(CCO)C3(C)CC2c2ccccc2O3)cc1 (stereo unspecified) | 0.1
Cc1c(C(C)(C)C)c(C=S)n2ccccc12 | 1.4
CN1c2ccccc2C(C)(C)C12C=Cc1cc(O)ccc1O2 (stereo unspecified) | 2.9
Cc1ccc(NS(=O)(=O)c2ccc(NC(=O)[C@@H]3CCCC[C@@H]3C(=O)O)cc2)c(C)c1 | i
CC(C)CNC(=O)c1cccc(Cn2cc(Cl)cn2)c1 | i

An excerpt of these results, as labelled records:
c1ccc(-c2nc3ccccc3c3nncn23)cc1
  H5N1 antiviral: 1.6
Cc1cc(C(=O)OCC(=O)NC(=O)NC(C)(C)C)c(C)o1
  H5N1 antiviral: 0.2
CN1c2ccccc2C(C)(C)C12C=Cc1cc(O)ccc1O2 (stereo unspecified)
  H5N1 antiviral: 2.9
CCCCN(CCCC)C(=O)CSc1nnc2n(C)c(=O)c3c4c(sc3n12)CCCC4
  H5N1 antiviral: 5.3

Additional entries
Molecule | H5N1 antiviral
O=C(O)CCN1C(=O)c2ccncc2C1=O | 0.5
C=CCc1ccc(OCCOCCOc2cccc3ccc(C)nc23)c(OC)c1 | i
COc1ccc(OCCN(C)Cc2ccccc2)cc1 | i
CCCCCOc1ccccc1C(=O)NCC(=O)O | 0.6
CC(=O)NC(CCS(C)(=O)=O)C(=O)Nc1ccc(Oc2ccccc2)cc1 (stereo unspecified) | i
O=C(O)C1CCCCC1C(=O)NCCc1ccccc1 (stereo unspecified) | 0.6
CCOc1cc(C(=O)OCC(=O)c2c(C)[nH]c3ccccc23)ccc1OCC(=O)N1CCOCC1 | i
CC(=O)N1CCN(C(=O)CNc2cc(C(F)(F)F)ccc2OCC(F)(F)F)CC1 | 0.5
N#Cc1cccc(NC(=O)COc2ccc(-n3ccnc3)cc2)c1 | i
Cc1nnc2ccc(Oc3ccc(-c4ccccc4)cc3)nn12 | 1.6
CN=Cc1cc(-c2ccccc2)sc1O | i
CCc1nc(N2CCOCC2)c(C#N)c2c1CCCC2 | 1.0
Cc1onc(-c2ccccc2)c1C(=O)Nc1ccnn1C1CCCCC1 | 1.1
O=C(CCc1nc2cccnc2n1Cc1ccccc1)NCCc1ccc(Cl)cc1 | i
O=C(C/C=N/OCc1ccc(Cl)cc1Cl)c1ccccc1 | i
O=C(Nc1ccc(N2CCN(C(=O)c3ccc(Cl)cc3)CC2)cc1)c1cc2ccccc2o1 | i
O=[N+]([O-])c1ccc(/C=N/Nc2cc(Cl)nc(-c3ccccc3)n2)cc1 | i
CCOC(=O)C1CCCCN1Cc1ccc(C(F)(F)F)cc1 (stereo unspecified) | i
CCc1ccccc1NC(=O)c1cnccn1 | 0.2
CCCn1c(SCC(=O)Nc2nnc(-c3ccccc3)s2)nnc1-c1ccccn1 | i

Fetched by compound from above:
Molecule | H5N1 antiviral
Cc1ccc(NS(=O)(=O)c2ccc(NC(=O)[C@@H]3CCCC[C@@H]3C(=O)O)cc2)c(C)c1 | i
O=C(OCc1nnc(-c2ccccc2)o1)c1ccco1 | 2.1
Cn1cnnc1SC(C(=O)Nc1ccc(F)cc1)c1ccccc1 (stereo unspecified) | i

(cont.)
Molecule | H5N1 antiviral
CC1=CC=CC2=NC(=O)CC(C)(C(=O)N(CC(=O)NC(C)C)C3CCCC3)N12 (stereo unspecified) | i
CCN1C(=O)CSC1=NC12CC3CC(CC(C3)C1)C2 | 1.5
COc1ccccc1CNC(=O)C1CCN(c2nc3ccccc3o2)CC1 | i
O=C(NC1CCN(C(=O)NC2CCCCC2)CC1)c1ccco1 | i
CCc1c(C)nc(SCC(=O)c2cccs2)c(C#N)c1C | 1.0
O=c1cc2c(nn1Cc1cccc(Cl)c1)-c1ccccc1CC2 | 1.9
COc1ccc(C2Sc3nncn3N2Cc2ccc(C#N)cc2)cc1 (stereo unspecified) | 4.8
O=C(CSc1nc2ccccc2n1CCc1ccccc1)NC1CCS(=O)(=O)C1 (stereo unspecified) | 0.6
CN(C)c1ccc(P(=O)(OC2CCCCC2)C(O)c2cccnc2)cc1 (stereo unspecified) | 0.5
O=C(N/N=C/c1ccc2c(c1)OCO2)/C(=C/c1ccc2c(c1)OCO2)NC(=O)c1ccccc1 | 0.1
O=C1c2ccccc2C(=O)c2c1cccc2N1CCOCC1 | i
COc1cccc(N2CCN(CC(=O)NCc3cccs3)CC2)c1 | i
CCOC(=O)c1c(CC(C)C)csc1NC(=O)C(C)C | 1.3
Cn1c2c(c3ccccc31)CCSC2=O | i
COC(=O)c1c(C)oc2cc(Br)c(OCC(=O)C(C)(C)C)cc12 | 0.6
O=C(CN1C(=O)c2ccccc2C1=O)N1CCCCC1 | 0.5
CCOc1ccc(CCNC(=O)Cc2nn[nH]n2)cc1OCC | 0.5
O=C1/C(=N\O)Cc2ccccc21 | i
COc1cc(C(=O)Nc2ccc(Br)cc2C(=O)c2ccccc2)cc(OC)c1OC | 0.5
CCCNC(=O)C1CC(=O)N(c2ccc(OCC(=O)Nc3cccc(C)c3C)cc2)C1 (stereo unspecified) | 1.1

2 successive compounds already listed:
Molecule | H5N1 antiviral
COc1cc(C(=O)Nc2ccc(Br)cc2C(=O)c2ccccc2)cc(OC)c1OC | 0.5
CCCNC(=O)C1CC(=O)N(c2ccc(OCC(=O)Nc3cccc(C)c3C)cc2)C1 (stereo unspecified) | 1.1

(listing goes on)
Molecule | H5N1 antiviral
Cc1cc(C)n(CCc2nc(-c3ccc(C)o3)cs2)n1 | i
CCOC(=O)Cn1c(C)cc(=O)c2cccc(C)c21 | i
CCC1=NNc2cccc3c(OC)ccc1c23 | i
O=C1[C@@H]2[C@H](C(=O)N1Cc1ccco1)[C@H]1C=C[C@@H]2C1 | 1.3
CCOc1cc(S(=O)(=O)n2cc(-c3ccc(F)cc3)c(N)n2)cc(OCC)c1OCC | i
CCOc1ccc(Nc2nc(Cc3nnc(SCC(=O)c4ccc(C)c(C)c4)o3)cs2)cc1 | i
COc1c(OC(C)=O)ccc(/C=C/c2ccc3ccccc3n2)c1[N+](=O)[O-] | i
CCOC(=O)c1sc(NC(=O)CSc2nnc(C(C)C)n2CC)nc1C | 0.9
O=c1c2c3nc4ccccc4nc3n(Cc3ccccc3)c2ncn1Cc1ccco1 | 0.3
CCOC(=O)N1CCN(S(=O)(=O)c2ccc3c(c2)CCN3C(=O)CC)CC1 | 0.7
CCC(CC)C(=O)Nc1cccc(C(=O)NCCc2ccc(S(N)(=O)=O)cc2)c1 | i
CCOC(=O)CN1C(=O)C(O)=C(C(C)=O)C1c1ccc(F)cc1 (stereo unspecified) | i
CCn1c(SCC(N)=O)nnc1-c1ccc(OC)c(OC)c1 | i
CCC(=Nc1ccc(OC)cc1OC)c1c(O)n(C2CCCCC2)c(=O)[nH]c1=O | i
CC1CCCN(CC(O)COCC2COc3ccccc3O2)C1 (stereo unspecified) | i
